TexasRed fluor: Texas Red fluorescence interference in TRb-SRC2 counter-screen; TRb/SRC2 Texas Red total fluorescence interference; Potency, µM (highest dose often 106 µM), for inactives: at the top dose fluorescence change, negative = quenching; actives 0.29% (n = 280,000); AID 1479; active = well fitted curve in either direction with a large enough effect; inconclusive = small, poorly fitted or top-dose-only effect; note: % is set by controls: 0 for no effect and ±100 for the full control effect
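Human TRβ ligand-binding domain (0.6 uM) and Texas Red SRC2 peptide (20 nM) in Tris buffer with 1 uM T3 and 5% DMSO were incubated with pinned compound for 5 hr at ambient temperature. Total fluorescence was computed as S + 2P (555/632 nm).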
SMN2 splice enh: SMN2 splice variant enhancement; HEK293 SMN2-luciferase splicing reporter, luminescence, 30-36 h; Potency, µM (series often up to 46.1 µM), without a hit: at the top dose activity change, positive = activation, actives largely listed as activators; actives 2.8% (n = 210,000); AID 1458; note: % of control where 0% means no effect; nearly all actives have a fitted effect of over 55% in size
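HEK293 cells carry an SMN2 […]–luciferase reporter in which exon 7 inclusion puts luciferase in frame. Cells were plated 10-12 h before compound addition, then incubated 30-36 h at 37C. ONE-Glo luminescence was read; sodium butyrate at 4.5 mM final served as control.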
GoLoco inh red: inhibitors of human Gai1-RGS12 GoLoco interaction (red fluorophore). AID 880. Gai1:RGS12 GoLoco peptide FP, rhodamine, 10 min. P63096. Potency, µM (titrated, usually from 61.6 µM), for inactives: top-dose activity, negative = inhibition, hits mostly inhibitors. actives 0.44% (n = 230,000); active = well fitted inhibition curve with a large enough effect, not every such curve was filed as active; inactive = no such curve, though single readings can be large or run the other way; note: % is set by controls: 0 for no effect and ±100 for the full control effect; nearly all actives have a fitted effect of over 30% in size; many of its hits are not listed in these tables
Target sequence (P63096 whole entry, looked up): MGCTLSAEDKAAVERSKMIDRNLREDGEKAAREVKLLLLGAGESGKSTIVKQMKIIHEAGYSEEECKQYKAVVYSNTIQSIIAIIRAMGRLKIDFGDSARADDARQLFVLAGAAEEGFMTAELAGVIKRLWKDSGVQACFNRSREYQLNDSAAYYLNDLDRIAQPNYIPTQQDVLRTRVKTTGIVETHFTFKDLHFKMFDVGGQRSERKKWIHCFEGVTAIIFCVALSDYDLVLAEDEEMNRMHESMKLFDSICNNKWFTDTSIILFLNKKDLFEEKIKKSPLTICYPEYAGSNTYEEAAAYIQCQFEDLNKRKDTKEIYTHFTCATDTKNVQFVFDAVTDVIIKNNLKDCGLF
TRb SRC2 PPI: TRbeta-SRC2 interaction inhibition; TRbeta-SRC2 peptide binding, fluorescence polarization; receptor liganded with 1 µM T3; Potency, µM (highest dose often 106 µM), without a hit: at the top dose activity change, negative = inhibition, actives largely listed as inhibitors; actives 0.065% (n = 280,000); AID 1469;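 note: plate controls were bound peptide for no effect and peptide without receptor for full effect; nearly all actives have a fitted effect of over 50% in size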
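A fluorescence polarization screen tested compounds at multiple concentrations against complex formation between 0.6 uM TRb ligand-binding domain and 20 nM Texas Red SRC2 peptide, with 1 uM T3 present; readout after 5 hr.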
LMNA splice mod: changes lamin A minigene splicing in HeLa cells. HeLa LMNA splicing GFP/RFP minigene ratio, 48 h. Potency, µM (titrated, usually from 46.1 µM), for inactives: at the top dose ratio change, negative = inhibition, usual class: inhibitors. actives 0.01% (n = 200,000); active = well fitted inhibition curve with a large enough effect in the signal ratio, with a control signal flat, not every such curve was filed as active; inconclusive = small, poorly fitted or top-dose-only effect, or effect the other way, or a change in a side signal; the % refers to the signal ratio; note: % is set by controls: 0 for no effect and ±100 for the full control effect
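S3 HeLa cells stably expressing lamin A-EGFP splicing minigene plus DsRed2, 600 cells/well, 48 h compound exposure at 37C. Laser-scanning cytometry; analysed as GFP (500-530 nm)/RFP (575-640 nm) total intensity ratio; 0.5% DMSO vehicle.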
RECQ1 inh: inhibitors of human RECQ1 DNA helicase | P46063 | RECQ1 DNA unwinding, red fluorescence kinetic read | Potency, µM (doses to about 57.3 µM), for inactives: at the top dose activity, negative = inhibition, hits mostly inhibitors | actives 0.54% (n = 240,000);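 note: plate controls were vehicle for no effect and no enzyme for full effect; nearly all actives have a fitted effect of over 30% in size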
Target sequence (P46063 whole entry, looked up): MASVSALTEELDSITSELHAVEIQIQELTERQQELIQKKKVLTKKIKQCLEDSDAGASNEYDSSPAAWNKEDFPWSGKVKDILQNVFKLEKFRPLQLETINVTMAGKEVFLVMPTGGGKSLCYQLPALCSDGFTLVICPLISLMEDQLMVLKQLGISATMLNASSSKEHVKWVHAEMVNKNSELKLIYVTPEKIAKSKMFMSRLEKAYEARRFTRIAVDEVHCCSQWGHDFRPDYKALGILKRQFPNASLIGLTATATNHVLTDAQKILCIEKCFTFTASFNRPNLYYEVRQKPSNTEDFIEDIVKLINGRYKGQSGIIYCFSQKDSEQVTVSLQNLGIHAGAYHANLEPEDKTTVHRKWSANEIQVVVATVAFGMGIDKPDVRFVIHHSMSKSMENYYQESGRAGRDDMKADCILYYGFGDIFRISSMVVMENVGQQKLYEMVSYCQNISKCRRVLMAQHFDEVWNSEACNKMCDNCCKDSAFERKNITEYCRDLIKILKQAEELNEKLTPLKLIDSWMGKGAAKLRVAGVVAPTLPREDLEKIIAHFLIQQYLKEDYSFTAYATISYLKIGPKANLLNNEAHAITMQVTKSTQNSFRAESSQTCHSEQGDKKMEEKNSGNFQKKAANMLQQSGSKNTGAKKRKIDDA
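RECQ1T1 50 nM; forked duplex (20 bp + 30-nt ss tails) 200 nM, ATP 2 mM final; pH 8.0, 2 mM MgCl2, 2.5 ug/ml poly(dI-dC); 15 min compound preincubation; discontinuous kinetic read over 2 h at RT.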
JMJD2E inh: blocks human JMJD2E demethylase activity | B2RXH2 | JMJD2E catalytic domain, FDH-coupled NADH fluorescence (FDH is formaldehyde dehydrogenase) | Potency, µM (titrated, usually from 57.1 µM), without a hit: at the highest dose activity change, negative = inhibition, usual class: inhibitors | actives 1.6% (n = 230,000) | AID 2147; active = well fitted inhibition curve with a large enough effect, not every such curve was filed as active; inconclusive = small, poorly fitted or top-dose-only effect, or another doubt; inactive = no such curve, though single readings can be large or run the other way;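 note: 0% = wells with enzyme and -100% = buffer wells without enzyme; nearly all actives have a fitted effect of over 50% in size; many of its hits are not listed in these tables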
An asterisk follows results filed as active; i = inactive; ? = inconclusive; . = not tested or not shown; [ ] = another dose, or the depositor's remark. Unless noted, calls come from the whole dose curve; as a rule, active = well fitted curve in the direction sought with a large enough effect; inconclusive = small, poorly fitted or top-dose-only effect, or another doubt; inactive = no such curve, though single readings can be large; an effect the other way counts as inactive or inconclusive. Potency is the fitted concentration of half-maximal effect.

SMILES	TexasRed fluor	SMN2 splice enh	GoLoco inh red	TRb SRC2 PPI	LMNA splice mod	RECQ1 inh	JMJD2E inh
CCOc1cc(/C=C2/C(=N)N3C=CSC3=NC2=O)ccc1OCCCOc1ccccc1C	-1%	-35%[inhibitor]	14%	0%	2%	-7%	?
CSCCC(NC(=O)c1ccccc1)C(=O)NC1CC1 (stereo not given)	-1%	-10%	-6%	17%	-5%	10%	-1%
Cn1c(=O)c(C(=S)NC(=O)C2CC2)c(N)n(Cc2ccccc2)c1=O	0%	-7%	11%	-7%	?	-11%	16%
CCCc1cc(=O)[nH]c(SCC(=O)c2c(N)n(C)c(=O)n(C)c2=O)n1	-3%	-22%	6%	2%	5%	-4%	8%
COc1cccc(/C=N/NC(=O)C(=O)NCc2cccnc2)c1O	-1%	11%	7%	8%	-11%	-4%	10µM*
Clc1cccc(NC2=NCCC2)c1	2%	27%	-7%	-1%	-8%	-5%	6%
CCc1nc(SCC(=O)N2CCOCC2)c2c(=O)n(C)c(=O)n(C)c2n1	-7%	7%	-7%	-7%	-9%	-1%	-16%
O=C(CCCC(=O)NCCc1ccccc1)NCCc1ccccc1	0%	-5%	6%	0%	10%	-5%	0%
CN(C(=O)c1ccccc1)c1nc2ccccc2s1	-1%	4.5µM*	9%	-5%	?	i	2%
COc1ccc(/C=N/NC(=S)Nc2ccccc2[N+](=O)[O-])cc1O	-1%[53 µM]	?	15%	-5%[53 µM]	?	-4%	?
COc1cc2c(cc1OC)C(C)N(S(=O)(=O)c1cn(C)c(C)n1)CC2 (stereo not given)	-4%	.	1%	4%	.	i	2%
Cc1ccc2[nH]c(=O)c(-c3nc4ccccn4c3NCc3ccco3)cc2c1	-2%	10%	15%	-5%	4%	i	12%
CN(/C(=N\S(=O)(=O)c1ccccc1)c1ccccc1)c1ccc(O)cc1	0%	-20%	-9%	-13%	.	4%	3%
O=C(CN1CCN(c2ccccc2)CC1)Nc1ccccc1Sc1ccccc1	-4%	.	.	-5%	?	-17%	-7%
O=C(CSC1=NCCS1)Nc1nc2ccccc2s1	0%	10%	7%	-3%	?	-3%	12%
CCOC(=O)C(Cc1ccccc1)C(=O)Nc1nccs1 (stereo not given)	-1%	-1%	-5%	-27%	14%	-8%	2%
Cc1nc(C)n(CC(O)COc2ccc3ccccc3c2)n1 (stereo not given)	1%	-21%	-4%	-1%	-1%	i	5%
CCN(CC)C(=O)Nc1c(C)n(C)n(-c2ccccc2)c1=O	2%	2%	5%	-20%	-3%	0%	3%
Cc1ccc(O)c(NC(=O)c2cccc(NC(=O)c3ccco3)c2)c1	-2%	9%	0%	-8%	-15%	i	0%
COc1ccccc1C(O)(c1ccccc1)C(CN1CCOCC1)c1ccccc1 (stereo not given)	0%	-11%	0%	-4%	.	-2%	2%
O=C(NC1CC(=O)c2sccc21)c1cccc(C(F)(F)F)c1 (stereo not given)	-8%	-6%	-12%	-1%	.	i	-6%
Cc1ccc2c(CC(=O)Nc3cccc(S(=O)(=O)N4CCOCC4)c3)coc2c1	-2%	-3%	-2%	1%	.	-2%	3%
CC(=O)c1c(C)[nH]c(C(=O)N(CCc2ccccc2)Cc2ccccc2)c1C	6%	.	8%	0%	.	i	2%
CCCCN1C(=O)Nc2ccccc2S1(=O)=O	1%	-3%	7%	-3%	15%	i	2%
O=C(CCCOc1ccc(Cl)cc1Cl)N/N=C/c1cccc([N+](=O)[O-])c1	7%	11%	114%[activator]	-9%	-9%	-3%	-4%
Next part
SMILES	TexasRed fluor	SMN2 splice enh	GoLoco inh red	TRb SRC2 PPI	LMNA splice mod	RECQ1 inh	JMJD2E inh
CCOC(=O)C(=O)c1cn(C2OCC(OC(C)=O)C(OC(C)=O)C2OC(C)=O)c2ccccc12 (stereo not given)	-5%	1%	5%	4%	1%	-5%	-3%
Cc1ccc2cc3c(NC(=O)C(C)C)nn(C)c3nc2c1	-1%	.	.	1%	6%	0%	-9%
Cc1cnc(C(=O)Nc2nnc(C)s2)cn1	2%	1%	3%	5%	-2%	0%	-10%
COc1ccc(OC)c(NC(=O)c2c3c(nc4ccccc24)CCC3)c1	-2%	-4%	0%	-2%	9%	-1%	5%
Cc1cc(N/N=C/c2ccc(O)cc2O)nc(-n2nc(C)cc2C)n1	0%	-91%[inhibitor]	1%	8%	?	0%	14%
O=C(c1cccnc1)C1CCCN(Cc2nc(Cc3ccccc3F)no2)C1 (stereo not given)	-1%	-8%	5%	1%	.	i	-4%
CN(CCO)c1cc(N(C)CCO)c([N+](=O)[O-])cc1[N+](=O)[O-]	-2%	-10%	-11%	-6%	?	-14%	?
COc1ccc(CN(C2CCCC2)S(=O)(=O)c2ccc(-n3cnnn3)cc2)cc1	0%	-23%	1%	-1%	?	i	-8%
COc1ccccc1C(=O)C1CCCN(Cc2ccc(Oc3ncccn3)cc2)C1 (stereo not given)	-5%	.	9%	2%	6%[46 µM]	i	?
Cc1cccc(C)c1NC(=O)CN(C)C(=O)C(c1ccccc1)c1ccccc1	-2%[53 µM]	27%	6%	2%[53 µM]	11%	-4%	-5%
CS(=O)(=O)N(CCc1ccccc1)CC(=O)NCc1cccnc1	-1%	19%	-6%	-1%	-6%	0%	11%
O=C(Nc1ccc2c(c1)OCO2)c1c(F)cccc1F	3%	10µM*	10%	-1%	3%	i	-4%
CCC(Oc1cc(Cl)ccc1Cl)C(=O)NN1C(=O)C2C3CCC(C3=C(C)C)C2C1=O (stereo not given)	1%	1%	1%	0%	?	i	-13%
CCCNC(=O)CN(c1ccc(F)c(Cl)c1)S(C)(=O)=O	-4%	.	-1%	-7%	9%	-1%	-3%
CNC(=S)N1N=C(c2ccc(C)cc2)CC1c1ccc(OC)cc1 (stereo not given)	0%	4%	8%	-4%	-2%[0.0737 µM]	-15%	1%
COc1cccc(CNC(=O)Cn2c(=O)oc3ccccc32)c1OC	-2%	-4%	5%	-16%	-12%	i	5%
CC(/C=C/c1ccc(Cl)o1)=C\C(=O)O	0%	-9%	-2%	3%	8%	-7%	-20%
O=C(NCCc1c[nH]c2ccccc12)C(=O)NCC(c1ccco1)N1CCN(c2ccccc2F)CC1 (stereo not given)	0%	1%[1.84 µM]	-6%	3%	-10%	-4%	8%
COC(=O)c1cccc(Oc2cccc(Cl)n2)c1	-2%	3%	0%	-10%	7%[9.22 µM]	-1%	-9%
O=C(Nc1nnc(-c2ccccc2F)s1)Nc1ccccc1F	-2%	?	8%	0%	.	11%	?
COc1ccccc1Nc1nc(N)nc(CSc2nnc(C)s2)n1	-2%	-10%	0%	-12%	16%	i	3%
CCn1nnc(-c2ccccc2NC(=O)C(F)(F)F)n1	-3%	-15%	4%	-14%	5%	-9%	2%
COCC(C)n1c(C)cc(C(=O)COC(=O)CCc2nc3ccccc3c(=O)[nH]2)c1C (stereo not given)	-2%	5%	12%	1%	-6%[46 µM]	-3%	2%
CC(NC(=O)NC1CCCCC1)C(c1cccs1)N1CCN(c2ccccc2)CC1 (stereo not given)	-4%	-12%	6%	-3%	?	-1%	2%
CCc1ccc(C(=O)N/N=C/c2ccc(Cl)cc2Cl)nc1	-10%	26%	1%	8%	2%	1%	7%
O=S(=O)(/C=C/c1ccccc1)Nc1ccc(F)cc1	1%	15%	10%	-1%	10%[46 µM]	-3%	4%
COC(=O)c1cc(S(=O)(=O)Nc2cccc(S(N)(=O)=O)c2)oc1C	-6%	.	3%	4%	?	4%	-13%
O=C(NCC1CCCO1)C1CCCN1C(=O)Nc1ccc(Cl)c(Cl)c1 (stereo not given)	-2%	.	5%	2%	15%[46 µM]	-17%	7%
Cc1[nH][nH]c(=O)c1C=Nc1ccc(C(F)(F)F)cc1	-1%	3%	2%	-10%	20%[46 µM]	-6%	-5%

Of the compounds above, 8 contain a Cl atom.
SMILES	TexasRed fluor	SMN2 splice enh	GoLoco inh red	TRb SRC2 PPI	LMNA splice mod	RECQ1 inh	JMJD2E inh
Clc1cccc(NC2=NCCC2)c1	2%	27%	-7%	-1%	-8%	-5%	6%
O=C(CCCOc1ccc(Cl)cc1Cl)N/N=C/c1cccc([N+](=O)[O-])c1	7%	11%	114%[activator]	-9%	-9%	-3%	-4%
CCC(Oc1cc(Cl)ccc1Cl)C(=O)NN1C(=O)C2C3CCC(C3=C(C)C)C2C1=O (stereo not given)	1%	1%	1%	0%	?	i	-13%
CCCNC(=O)CN(c1ccc(F)c(Cl)c1)S(C)(=O)=O	-4%	.	-1%	-7%	9%	-1%	-3%
CC(/C=C/c1ccc(Cl)o1)=C\C(=O)O	0%	-9%	-2%	3%	8%	-7%	-20%
COC(=O)c1cccc(Oc2cccc(Cl)n2)c1	-2%	3%	0%	-10%	7%[9.22 µM]	-1%	-9%
CCc1ccc(C(=O)N/N=C/c2ccc(Cl)cc2Cl)nc1	-10%	26%	1%	8%	2%	1%	7%
O=C(NCC1CCCO1)C1CCCN1C(=O)Nc1ccc(Cl)c(Cl)c1 (stereo not given)	-2%	.	5%	2%	15%[46 µM]	-17%	7%

From PubChem BioAssay

These rows are one share of the data (hit frequency here may not be typical).
